CtBP-E1A inh = blocks the CtBP interaction with E1A; AlphaScreen GST-E1A/His-CtBP binding, 1536-well; hits give low values; control for the full effect not named in the record; activity change, % (concentration not given with the values); 340,000 tested, 0.49% active; AID 651724; in the data active means activity change below about -65%; inconclusive means about -30% to -65%; inactive means above about -30%; further: on the % scale 0 is the no-effect control and ±100 the full control effect
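AlphaScreen with 125 nM GST-E1A and 125 nM His-CtBP (5X stocks) in Tris pH 8.0, 300 mM NaCl, BSA, Tween 20, TCEP. Compounds preincubated 2 h at 37 deg C, then glutathione donor/nickel acceptor beads added for 1 h at 37 deg C in dark.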
gsp antagonist = antagonizes gsp, the McCune-Albright syndrome mutation. 340,000 tested, 0.4% active. AID 624288. gsp-mutant cells, cAMP HTRF, 30 min; control for the full effect not named in the record. Potency, µM (titrated, usually from 76.9 µM), inactives show at the highest dose activity change, negative = inhibition, actives largely listed as inhibitors; active = falling curve of any shape with a large fitted effect; inconclusive = falling curve, mostly with a smaller effect; inactive = flat or rising curve; cell line not stated here;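 further: intracellular cAMP measured with PDE inhibitor Ro 20-1724 present during compound exposure; potency means the concentration at half of the fitted maximal effect; on the % scale 0 is the no-effect control and ±100 the full control effect; nearly all actives have a fitted effect of over 65% in size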
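HTRF cAMP read-out (cAMP-d2 plus anti-cAMP antibody-K in lysis buffer, 30 min RT). Before lysis, cells are exposed to compounds with […] for 30 min at 37C in DPBS containing Ca/Mg, BSA and Tween 20.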
gsp agonist = activates gsp, the McCune-Albright syndrome mutation; gsp mutant cells, cAMP HTRF, 30 min; control for the full effect not named in the record; Potency, µM (titrated, usually from 76.9 µM), for the others: top-dose activation (cAMP increase), most hits filed as activators; 340,000 tested, 0.13% active; active = well fitted activation curve with a large enough effect; inconclusive = small, poorly fitted or top-dose-only effect, or another doubt; inactive = no such curve, though single readings can be large or run the other way; cell line not stated here;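 further: phosphodiesterase inhibitor Ro 20-1724 added with compounds to block cAMP breakdown; potency means the concentration at half of the fitted maximal effect; nearly all actives have a fitted effect of over 60% in size; about a fifth of the inactives were tested at one dose only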
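Cells stably selected in G418 were plated at 2000/well, grown 16-24 hr, then given compounds in DMSO with the PDE inhibitor […] (300 uM solution added) for 30 min at 37C; cAMP was read by HTRF.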
Menin MLL FP FL = menin-MLL binding inhibition, fluorescein peptide; AID 1766; 290,000 tested, under 10 active; FP activity change, % at 61.4 µM; Fluorescence polarization, fluorescein-MLL peptide displacement from menin; inconclusive = falling polarisation curve, or a change in total fluorescence; inactive = total fluorescence flat and polarisation flat or rising; no compound was filed as active; the % refers to the polarisation; negative = inhibition;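 further: % of control where 0% means no effect; inhibitors lower the polarisation; unlabelled MLL peptide was the positive control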
Sfp inh = inhibitors of Bacillus subtilis Sfp phosphopantetheinyl transferase; Potency, µM, without a hit: max response, negative = inhibition, actives largely listed as inhibitors; Biochemical Sfp PPTase activity, qHTS; Q9F4F7; AID 1490; 310,000 tested, 3.5% active; active means well fitted inhibition curve with a large enough effect; inconclusive means small, poorly fitted or top-dose-only effect, or another doubt; inactive means no such curve, though single readings can be large or run the other way;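 further: the enzyme is Sfp with the accession as filed and its product quenches rhodamine fluorescence; potency means the concentration at half of the fitted maximal effect; 0% = enzyme reaction without inhibitor and -100% = no enzyme wells; top concentration of the series not given in the record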
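Reaction rates are the 30-min fluorescence difference (ex 525, em 598 nm) in wells containing 15 nM Sfp, 5 uM rhodamine-CoA and 12.5 uM BHQ-2-YbbR at pH 7.6 with 10 mM MgCl2.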
ClpP mod = qHTS Assay for Activators of ClpP | AID 651965, 2013 | 340,000 tested, 1.9% active | purified B. subtilis ClpP, FRET peptide cleavage, 20 min | Potency, µM (titrated, usually from 57.5 µM), for inactives: at the highest dose activity change, negative = active; active = well fitted falling curve with a large enough effect; inconclusive = small, poorly fitted or top-dose-only effect; inactive = no such curve, though single readings can be large or run the other way; further: potency means the concentration at half of the fitted maximal effect; the source files actives as falling curves though it sought activators and does not explain the sign; nearly all actives have a fitted effect of over 65% in size; many hits overshoot -100%
Target sequence (P80244 whole entry, looked up): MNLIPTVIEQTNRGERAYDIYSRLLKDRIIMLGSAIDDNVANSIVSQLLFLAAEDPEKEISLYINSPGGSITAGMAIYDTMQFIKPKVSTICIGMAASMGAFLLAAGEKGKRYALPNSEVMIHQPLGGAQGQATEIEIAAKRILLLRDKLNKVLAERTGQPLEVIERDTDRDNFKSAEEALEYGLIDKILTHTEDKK
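Buffer: 100 mM Tris/HCl pH8, 100 mM KCl, 0.05% low protease BSA, 2.5% glycerol, 0.01% Tween-20. ClpP 10 microg/mL final; 20 min RT; delta FRET normalized to ADEP and DMSO controls.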
TRPV1 potentiator = human TRPV1 potentiation | Q8NER1 | TRPV1-expressing cells, Fluo-8 calcium influx, capsaicin EC20 potentiation; host cell line not named in the record; control for the full effect not named in the record | potentiation, % at 8.33 µM | 320,000 tested, 0.02% active; active means potentiation above 80%; inconclusive means 30% to 80%; inactive means below 30%; further: 0% is about no effect
Target sequence (Q8NER1 whole entry, looked up): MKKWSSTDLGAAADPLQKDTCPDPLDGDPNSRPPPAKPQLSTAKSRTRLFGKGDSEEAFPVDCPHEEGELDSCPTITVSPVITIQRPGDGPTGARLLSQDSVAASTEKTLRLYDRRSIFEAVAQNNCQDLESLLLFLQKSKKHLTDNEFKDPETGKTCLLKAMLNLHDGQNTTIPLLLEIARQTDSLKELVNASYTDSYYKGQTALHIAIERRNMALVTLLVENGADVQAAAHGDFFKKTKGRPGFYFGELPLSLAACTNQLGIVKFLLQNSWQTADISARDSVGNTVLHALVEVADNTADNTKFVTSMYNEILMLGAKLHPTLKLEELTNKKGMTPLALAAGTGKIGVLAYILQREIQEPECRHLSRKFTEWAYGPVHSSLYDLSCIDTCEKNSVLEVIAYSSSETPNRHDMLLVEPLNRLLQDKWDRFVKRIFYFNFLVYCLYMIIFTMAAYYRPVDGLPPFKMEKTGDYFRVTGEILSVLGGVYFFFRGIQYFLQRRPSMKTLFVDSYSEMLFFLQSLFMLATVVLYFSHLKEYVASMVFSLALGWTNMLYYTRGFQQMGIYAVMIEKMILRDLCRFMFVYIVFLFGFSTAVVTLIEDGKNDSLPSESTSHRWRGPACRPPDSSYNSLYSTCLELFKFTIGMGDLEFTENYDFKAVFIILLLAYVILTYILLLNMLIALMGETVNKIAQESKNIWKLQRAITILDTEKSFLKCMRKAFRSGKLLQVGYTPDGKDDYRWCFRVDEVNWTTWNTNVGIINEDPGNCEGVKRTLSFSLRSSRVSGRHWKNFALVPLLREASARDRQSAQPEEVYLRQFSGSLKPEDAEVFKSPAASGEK
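Cells expressing TRPV1 were dye-loaded with Fluo-8 and read kinetically: 10 s baseline, 3 min after compound (agonist portion), then 2 min after EC20 capsaicin (allosteric enhancer portion). Calcium-bound dye fluorescence at 480/520 nm.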
* marks the source's active call; other numbers are inactive results; ? = inconclusive; / = not tested or not shown; [ ] = remark or other dose.

SMILES	CtBP-E1A inh	gsp antagonist	gsp agonist	Menin MLL FP FL	Sfp inh	ClpP mod	TRPV1 potentiator
O=C(N/C=C\n1cnc2cc(C(F)(F)F)ccc21)c1ccc([N+](=O)[O-])cc1	7	-11%	1%[15.4 µM]	-0.2	-4%	/	-7
Cc1ncc(CO)c(/C=N/NC(=S)Nc2ccc(C(C)C)cc2)c1O	?	-4%	?	9.0	22µM*	-18%	6
COc1ccccc1N(Cc1cc(=O)[nH]c2ccccc12)C(=O)c1cccc([N+](=O)[O-])c1	-10	-3%	?	3.6	-11%	-0.8%	-6
Cc1cccc(-c2ccc3[nH]c4c(c3c2)CCN2C[C@@H]([C@H](C)O)[C@@H](N(C)C(=O)NC3CCCCC3)C[C@@H]42)c1	-16	/	-2%	/	/	-11%	/
CC(=O)NNc1cc(=O)c2c(=O)n(C)c(=O)n(C)c2[nH]1	-18	6%	13%	0.5	15%	-5.5%	4
O=C(CN1C(=O)NC2(CCCCCCC2)C1=O)N1CCc2ccccc2C1	1	11%	-28%	2.4	1%	-0.7%	8
O=C(C(=O)N1CCCc2ccccc21)N1CCCc2ccccc21	-2	-7%	7%[15.4 µM]	3.6	-1%	/	-27
Cc1cc(Br)cc2c(C(=O)Nc3c(C)n(C)n(-c4ccccc4)c3=O)cc(-c3cccs3)nc12	9	-5%	?	10	10%	-7.9%	8
COc1ccccc1CNC(=O)CNC(=O)c1cn(-c2ccccc2OC)c(=O)c2ccccc12	5	2%	-12%[15.4 µM]	-0.7	24%	-2.3%	7
O=C(COC(=O)c1cc(S(=O)(=O)N2CCCC2)ccc1O)Nc1ccc(S(=O)(=O)N2CCOCC2)cc1	-5	3%	17%	0.1	0%	-2.4%	22
COCc1cc(C)nc2sc(C(=O)N3CCCC3)c(N)c12	-7	2%	19%	-0.4	?	0.3%	4
COc1ccccc1NS(=O)(=O)c1ccc(C)c(C(=O)NC2CCN(Cc3ccccc3)CC2)c1	-3	1%	-4%[15.4 µM]	/	/	-0.6%	?
O=C(O)CCNc1cc(N2CCN(C(=O)c3ccco3)CC2)c2noc3c2c1C(=O)c1ccccc1-3	-85*	?	11%[15.4 µM]	?	-23%	/	3
CCC1=NC(c2ccccc2OC)N(O)C1(C)C (centres undefined)	7	7%	-3%	-3.0	-16%	-11%	-17
COc1ccccc1NC(=O)CSc1c2c(nc3ccccc13)CCC2	10	-9%	-40%[inhibitor]	0.2	9%	2.4%	8
CN(c1ccccc1)S(=O)(=O)c1ccc(C(=O)Nc2nnc(C3CC3)o2)cc1	/	9%	-30%	-1.5	23%	2.0%	1
O=C(N/N=C/c1ccc(OC(=O)c2ccccc2)cc1)c1cccnc1	2	2%	16%[15.4 µM]	1.3	3%	/	4
O=C(CCl)N1c2ccccc2Oc2ccc3ccccc3c21	?	-14%	22%	/	/	/	/
Fc1ccc(N/N=C/c2cccnc2)c(F)c1	-4	-5%	-19%	-2.0	-6%	0.4%	-20
COc1ccc(NC(=O)C(C)NS(=O)(=O)c2ccc(NC(C)=O)cc2)cc1Cl (centres undefined)	8	10%	8%	2.8	11%	-0.3%	2
CCN(C(=O)COC(=O)c1cc(-c2cccs2)nc2ccccc12)C1CCS(=O)(=O)C1 (centres undefined)	-8	-23%	?	-1.4	-5%	3.8%	3
COC(=O)c1ccc(OC(=O)C23CCC(C)(C(=O)O2)C3(C)C)cc1 (centres undefined)	/	-1%	-4%	-2.9	11%	3.3%	-8
COc1ccc(-c2nn(-c3ccccc3)cc2/C=N/NC(=S)NC(C)C)cc1OC	-2	-1%	-32%[inhibitor]	8.8	11%	-12%	2
O=C1/C(=N/n2cnnc2)c2ccccc2N1Cc1ccccc1	/	/	/	5.8	45µM*	/	-1
O=C(c1ccc2c(c1)OCO2)N1CCC2(CC1)Oc1ccc(Cl)cc1C(=O)C21CC(c2cccnc2)=NO1 (centres undefined)	-1	-23%	/	2.2	-4%	-7.7%	-10
COc1ccc(C(=O)NCc2nnc(SC)n2C2CCCCC2)cc1	3	6%	1%	0.2	15%	0.7%	8
Cc1sc2ncnc(SCC(=O)Nc3ccc(S(=O)(=O)N4CCOCC4)cc3)c2c1C	-7	-4%	-8%	/	/	/	/
COc1cccc(/C=C2\SC(=O)N(CC(=O)NCCCn3ccnc3)C2=O)c1	?	8%	0%	1.5	10%	-6.7%	-19
CCCn1nc(NC(=O)c2cccs2)c2cc3ccc(C)cc3nc21	/	?	?	0.5	14%	-1.0%	/
Nc1ccc(-c2nc3cc(N)ccc3s2)cc1	3	-3%	19%[15.4 µM]	4.3	7%	0.1%	-3
CC(=O)NNS(=O)(=O)c1ccc(-c2cc(C(F)(F)F)n(C)n2)s1	10	-7%	-1%[15.4 µM]	1.6	-10%	0.3%	-4
COc1ccc(N2CCN(c3oc(COc4ccccc4Cl)nc3C#N)CC2)cc1	?	-9%	-1%	3.7	-5%	-3.6%	3
COc1ccc(CNC(=O)CSc2nnc3c(Cl)cc(C(F)(F)F)cn23)cc1OC	8	13%	-23%[15.4 µM]	1.0	2%	-4.3%	4
COc1ccc(-c2sc3cc(OC)c(OC)cc3c2-c2ccc(O)cc2)cc1	-20	-11%	/	/	/	4.7%	/
Cc1ccc(NC(=O)CS(=O)(=O)c2cn(C)c3ccccc23)c(C)c1	-22	3%	-9%	3.4	11%	-10%	-3
O=C1c2[nH]c3ccccc3c2CC1N1C(=O)c2ccccc2C1=O (centres undefined)	1	/	-3%	/	/	1.2%	/
CCOC(=O)Cc1csc(NC(=O)CCc2ccc(S(=O)(=O)N3CCOCC3)cc2)n1	15	-5%	-68%[inhibitor]	2.4	10%	1.2%	19
C=CCn1c(=O)c2ccccc2n2c(SCC(=O)NC(C)C)nnc12	0	1%	11%	-0.2	8%	-3.2%	7
CC12CCC(=O)N1C(C(=O)Nc1nnc(SCc3ccccc3F)s1)CS2 (centres undefined)	7	-10%	5%[15.4 µM]	/	2%	/	27
O=C(Nc1ccc2oc(-c3cccnc3)nc2c1)c1ccc([N+](=O)[O-])o1	9	1%	17%[15.4 µM]	4.7	7%	/	7
CN(C)CCC(Oc1ccccc1OCc1ccccc1)c1ccccc1 (centres undefined)	-11	11%	26%	/	/	/	/
O=C(NCc1n[nH]c(=S)n1-c1ccc(F)cc1)c1ccc(S(=O)(=O)N2CCCCC2)cc1	5	2%	?	1.1	2%	/	16
COc1cc(C(=O)Nc2ccccn2)cc(OC)c1OC	2	4%	-17%	1.2	8%	-0.8%	7
CN1CCN(C(c2ccc(Cl)cc2)c2cc(Cl)c3cccnc3c2O)CC1 (centres undefined)	-80*	4%	10%[15.4 µM]	1.0	79µM*	/	7
O=C(NCc1ccccn1)C(C(=O)c1ccc(F)cc1)n1ccccc1=O (centres undefined)	-1	4%	?	1.1	-30%	-6.3%	-4
O=C(/C=C/c1ccccc1)NCCS(=O)(=O)N1CCN(c2ccc(F)cc2)CC1	9	6%	-7%	/	/	-5.4%	1
CCOC(=O)CSC1=NC(=O)/C(=C\c2ccc(Cl)cc2)S1	-9	32µM*	17%	?	?	-0.3%	-20
COc1ccc(C2=CC(=O)CC(c3ccc(F)cc3)C2)cn1 (centres undefined)	2	-6%	/	/	/	1.5%	/
CCOCCCNC(=O)C(c1ccc(OC)cc1)N(Cc1ccc2c(c1)OCO2)C(=O)c1cnccn1 (centres undefined)	5	-33%	13%[15.4 µM]	10	6%	1.4%	18
Cc1noc(C)c1C(=O)Nc1nc(-c2ccc(F)c(F)c2)cs1	-2	-22%	-8%	/	/	-1.0%	-2
The list goes on.
SMILES	CtBP-E1A inh	gsp antagonist	gsp agonist	Menin MLL FP FL	Sfp inh	ClpP mod	TRPV1 potentiator
COc1ccc(NC(C)(C)c2nnnn2-c2c(C)cccc2C)cc1	-4	-5%	10%[15.4 µM]	0.0	-4%	/	-1
Cc1ccccc1C(=O)N1CCN(c2ccc(NC(=O)c3cccc(OC(C)C)c3)cc2)CC1	-2	14%	7%	/	9%	1.0%	4
COc1ccc2c(ccc[n+]2[O-])c1	7	7%	?	/	/	/	/
O=C(CN1CCOCC1)Nc1ccc(-c2nc3ccccc3[nH]2)cc1	-17	-12%	-12%	4.8	16%	25µM*	-1
COc1ccccc1CN(C)C(=O)CSc1nnc(C2CC2)n1C1CC1	0	-11%	?	/	/	-1.4%	16
Cc1nc(-c2ccc(S(=O)(=O)Nc3ccccc3C)cc2)co1	0	4%	?	/	1%	1.0%	9
Cc1ccc(/C=N\NC(=O)c2ccc(Cn3cc(Br)c([N+](=O)[O-])n3)o2)o1	-2	-3%	-10%[15.4 µM]	0.3	-1%	/	1
COCCOC(=O)C1=C(C)N=C2SCCC(=O)N2C1c1cccs1 (centres undefined)	11	7%	3%[15.4 µM]	0.6	3%	/	4
Cc1cc(NCC2CCCCC2)nc2ccccc12	23	-5%	-5%[15.4 µM]	-1.5	-12%	/	-21
COC(=O)c1ccc(NC(=O)CN(c2ccc(OC)cc2)S(C)(=O)=O)cc1	-17	4%	42%	3.1	8%	-0.7%	15
O=C(CN1CCCCC1)NNc1nc(-c2ccccc2)c2cc(Br)ccc2n1	0	0%	?	-1.2	3%	/	1
CN(c1ccc(OC(=O)CN2C(=O)NC3(CCCC3)C2=O)cc1)S(=O)(=O)c1ccccc1	2	-3%	7%	/	/	-1.0%	2
O=C(Nc1ccc2c(c1)OCCO2)N1CCOCC1	-5	9%	-7%[15.4 µM]	5.1	-6%	/	27
Cc1ccc(S(=O)(=O)N/N=C/c2cccc([N+](=O)[O-])c2)cc1	-8	5%	17%	-1.0	10%	-3.6%	4
Cc1cc(Cl)ccc1OCC(=O)NCCC(=O)O	-22	-9%	-9%	-0.7	15%	-2.0%	-1
COc1ccc(CCNC(=O)CNS(=O)(=O)c2cccs2)cc1OC	4	10%	-21%	5.0	12%	-0.1%	0
COc1ccccc1Nc1cc(C)nc(Nc2ccccc2OC)n1	-1	?	-21%	/	/	-10%	-6
